# NOMO-1 viab = STK33 inhibitor candidate reducing NOMO-1 cell viability | NOMO-1 AML viability, CellTiter-Glo luminescence, 72 h | inhibition, % (test concentration not listed) | actives 7.5% (n = 37,000);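 active = most replicates above 80%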;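 also: wells of about 30 µL received 25 nL stock; 0% = median of vehicle wells and 100% = reference inhibitor level; the first replicate is given; inactives centre near 10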
# Active calls of the source: *.
SMILES,NOMO-1 viab
CC(C)NC(=O)N(C)C[C@H]1Oc2ccc(NS(=O)(=O)c3ccccc3)cc2C(=O)N([C@@H](C)CO)C[C@H]1C,-6
CNS(=O)(=O)c1cc(-c2nnc(Nc3ccc(C(=O)N(C)C)cc3)c3ccccc23)ccc1C,14
CCCCn1c2ccccc2c2nnc(SCCN3CCOCC3)nc21,33
C[C@@H]1CN([C@H](C)CO)C(=O)c2cccc(NC(=O)c3nc4ccccc4s3)c2O[C@H]1CN(C)C(=O)NC1CCCCC1,9
C[C@@H]1CN([C@H](C)CO)C(=O)c2cc(NC(=O)CCN3CCOCC3)ccc2O[C@@H]1CN(C)CC1CC1,33
C[C@@H]1CN([C@H](C)CO)C(=O)c2cc(N(C)C)ccc2O[C@@H]1CN(C)Cc1ccc(C(F)(F)F)cc1,30
COc1cc(OC)cc(C2C(C#N)=C(N)OC(N)=C2C#N)c1,39
N#Cc1c(-c2ccccc2)nc(SCC(=O)Nc2ccc(Oc3ccccc3)cc2)[nH]c1=O,30
O=C(NC(=S)NCc1cccnc1)c1ccc(-c2cccc([N+](=O)[O-])c2)o1,3
CCOc1ccc(C(C)C)cc1S(=O)(=O)n1c(C)nc2ccccc21,33
CC(C)[C@@H]1CC[C@@]2(C)[C@H](O)CC[C@@](C)(O)[C@@H]2[C@@H]1OC(=O)/C=C/c1ccccc1,27
C[C@H](CO)N1C[C@H](C)[C@H](CN(C)S(=O)(=O)c2cn(C)cn2)Oc2c(NC(=O)Nc3ccc4c(c3)OCO4)cccc2C1=O,9
CCC(Sc1nnnn1-c1ccccc1)C(=O)Nc1ccc([N+](=O)[O-])cc1 (stereo unspecified),16
O=C1CC(SCCc2nc3ccccc3[nH]2)C(=O)N1c1cccc(F)c1 (stereo unspecified),22
O=C(CSc1ccc(Cl)cc1)Nc1cccc(-c2nnc(-c3ccco3)o2)c1,14
COc1ccc(NC(=O)N(C)C[C@H]2Oc3c(NS(=O)(=O)c4ccc(F)cc4)cccc3C(=O)N([C@H](C)CO)C[C@H]2C)cc1,12
C[C@H]1CN([C@@H](C)CO)C(=O)c2cc(NC(=O)Nc3ccc(F)cc3)ccc2O[C@H]1CN(C)S(=O)(=O)c1ccc(F)cc1,24
COc1ccc(NC(=O)Nc2ccc3c(c2)C(=O)N([C@H](C)CO)C[C@H](C)[C@H](CN(C)Cc2ccc(C(=O)O)cc2)OCCCC[C@@H](C)O3)cc1,6
Cc1noc(C)c1S(=O)(=O)Nc1ccc2c(c1)C(=O)N([C@H](C)CO)C[C@H](C)[C@@H](CN(C)C)OCCCC[C@@H](C)O2,-4
C[C@H]1CN([C@@H](C)CO)C(=O)c2cc(N(C)C)ccc2O[C@@H]1CN(C)Cc1ccc(Oc2ccccc2)cc1,21
C[C@@H]1CN([C@H](C)CO)C(=O)Cc2cc(NC(=O)CCN3CCOCC3)ccc2O[C@H]1CN(C)Cc1ccc(C(F)(F)F)cc1,-13
CC/C=C\C/C=C\C/C=C\C/C=C\C/C=C\CCCC(=O)O,10
Cn1ncc(C#N)c1NC(=O)C1CC(c2ccc(Cl)c(Cl)c2)=NO1 (stereo unspecified),10
C[C@H]1CN([C@@H](C)CO)C(=O)c2cccc(NC(=O)Nc3cccc4ccccc34)c2O[C@@H]1CN(C)C(=O)Nc1ccc(C(F)(F)F)cc1,63
COC(=O)c1c(-c2c(Cl)cccc2Cl)noc1C(=O)NN,-1
CCn1c(NCCCO)nc2ccccc21,27
C[C@@H]1CN([C@@H](C)CO)C(=O)c2cccc(NC(=O)C3CCOCC3)c2O[C@H]1CN(C)Cc1ccc(Oc2ccccc2)cc1,67
C[C@@H]1CN([C@@H](C)CO)C(=O)c2cc(NC(=O)Nc3ccccc3)ccc2O[C@@H]1CN(C)Cc1ccc(C(=O)O)cc1,8
COc1ccc(S(=O)(=O)Nc2ccc3c(c2)C(=O)N([C@H](C)CO)C[C@@H](C)[C@H](CN(C)S(=O)(=O)c2ccc(F)cc2)O3)cc1,-2
Cc1noc(C)c1S(=O)(=O)Nc1ccc2c(c1)C(=O)N([C@H](C)CO)C[C@H](C)[C@@H](CN(C)S(=O)(=O)c1cccs1)O2,-3

# Quoted at random: five compounds from above, in no set order.
SMILES,NOMO-1 viab
C[C@@H]1CN([C@H](C)CO)C(=O)c2cc(NC(=O)CCN3CCOCC3)ccc2O[C@@H]1CN(C)CC1CC1,33
CC/C=C\C/C=C\C/C=C\C/C=C\C/C=C\CCCC(=O)O,10
O=C1CC(SCCc2nc3ccccc3[nH]2)C(=O)N1c1cccc(F)c1 (stereo unspecified),22
COc1cc(OC)cc(C2C(C#N)=C(N)OC(N)=C2C#N)c1,39
CC(C)[C@@H]1CC[C@@]2(C)[C@H](O)CC[C@@](C)(O)[C@@H]2[C@@H]1OC(=O)/C=C/c1ccccc1,27

# (more compounds)
SMILES,NOMO-1 viab
COc1cc(NC(=O)COc2ccc(Cl)cc2C)c(OC)cc1Cl,-6
COc1ccc(NC(=O)N(C)C[C@H]2Oc3ccc(NC(=O)Nc4ccc(C(F)(F)F)cc4)cc3C(=O)N([C@@H](C)CO)C[C@@H]2C)cc1,16
C=CCn1c(SCC(=O)O)nnc1-c1cccc(C)c1,-1
C[C@H](CO)N1C[C@H](C)[C@H](CN(C)Cc2ccc(C(=O)O)cc2)Oc2ccc(NC(=O)CCC(F)(F)F)cc2C1=O,-15
CC(=O)c1cccc(N(CC(=O)Nc2ccccc2C(F)(F)F)S(C)(=O)=O)c1,26
C[C@H](CO)N1C[C@H](C)[C@H](CN(C)Cc2ccc(Oc3ccccc3)cc2)Oc2ccc(NC(=O)NC3CCCCC3)cc2CC1=O,43
COc1ccc(F)cc1S(=O)(=O)Nc1cccc(S(=O)(=O)N2CC3(C)CC2CC(C)(C)C3)c1 (stereo unspecified),28
CC(C)c1ccc(NC(=O)CN(C)S(=O)(=O)c2ccc(F)cc2)cc1,15
Cc1noc(C)c1S(=O)(=O)N(C)C[C@@H]1Oc2ccc(NC(=O)Nc3ccccc3)cc2CC(=O)N([C@H](C)CO)C[C@@H]1C,-7
CNC[C@H]1Oc2ccc(NS(C)(=O)=O)cc2C(=O)N([C@@H](C)CO)C[C@H]1C,-27
COC(=O)C[C@H]1C(C)(C)C(=O)[C@@H]2C[C@@]3(O)C4=CC(=O)O[C@@H](c5ccoc5)[C@]4(C)CCC3[C@@]1(C)C2=O (stereo partly specified),104*
C[C@@H]1CN([C@@H](C)CO)C(=O)c2cccc(NC(=O)CCCCCC(=O)Nc3ccccc3N)c2O[C@H]1CN(C)Cc1ccc(Oc2ccccc2)cc1,141*
O=C(/C=C/c1ccccc1)c1ccc(O[C@@H]2O[C@H](CO)[C@@H](O)[C@H](O)[C@H]2O)cc1O,16
COc1ccc(CN(C)C[C@H]2Oc3c(NC(=O)c4ccncc4)cccc3C(=O)N([C@@H](C)CO)C[C@@H]2C)cc1,31
CC(C)NC(=O)Nc1ccc2c(c1)CC(=O)N([C@@H](C)CO)C[C@H](C)[C@@H](CN(C)CC1CCCCC1)O2,21
C[C@H]1CN([C@@H](C)CO)C(=O)c2cc(NS(=O)(=O)c3ccccc3)ccc2O[C@H]1CN(C)Cc1ccc(C(=O)O)cc1,-10
C[C@@H]1CN([C@@H](C)CO)C(=O)c2cc(NC(=O)Nc3ccc4c(c3)OCO4)ccc2O[C@@H]1CN(C)Cc1ccc(Oc2ccccc2)cc1,66
C[C@H](CO)N1C[C@H](C)[C@H](CN(C)C(=O)Nc2cccc3ccccc23)Oc2ccc(NC(=O)Cn3cnnn3)cc2C1=O,17
COc1ccc(OC)c(NC(=O)c2ccc(CSc3nnc(C)s3)cc2)c1,30
CNC[C@H]1OCCCC[C@@H](C)Oc2ccc(NC(=O)Nc3c(C)noc3C)cc2C(=O)N([C@H](C)CO)C[C@@H]1C,27
COc1cccc(NC(=O)CCc2nc(-c3ccc(C)cc3)no2)c1,-8
Cc1cccc(C)c1NC(=O)CSc1nc2c(cc1C#N)CCC2,15
Cc1ccccc1OCC(=O)Nc1ccc([N+](=O)[O-])cc1O,47
COc1ccc(S(=O)(=O)N(C)C[C@@H]2Oc3c(NS(C)(=O)=O)cccc3C(=O)N([C@H](C)CO)C[C@H]2C)cc1,-11
Cc1cc(C)c(NS(=O)(=O)c2ccc(NC(=O)c3nc4nc(C)cc(C(F)F)n4n3)cc2)c(C)c1,14
C[C@H](CO)N1C[C@H](C)[C@H](CN(C)C)Oc2ccc(NC(=O)NC3CCCCC3)cc2C1=O,13
Cc1noc(C)c1NC(=O)Nc1ccc2c(c1)C(=O)N([C@@H](C)CO)C[C@@H](C)[C@@H](CN(C)S(C)(=O)=O)O2,2
Cc1cc(C(=O)Nc2cccc3c2O[C@@H](CN(C)Cc2ccc(-c4ccccc4)cc2)[C@@H](C)CN([C@H](C)CO)C3=O)n(C)n1,25
Cc1noc(C)c1S(=O)(=O)N(C)C[C@H]1Oc2ccc(NS(C)(=O)=O)cc2CC(=O)N([C@H](C)CO)C[C@H]1C,11
COc1ccc(S(=O)(=O)Nc2ccc3c(c2)C(=O)N([C@H](C)CO)C[C@H](C)[C@H](CN(C)C(=O)Nc2ccc(C(F)(F)F)cc2)OCCCC[C@@H](C)O3)cc1,134*
CS(=O)(=O)N(CC(=O)Nc1cccc([N+](=O)[O-])c1)c1ccc2c3c(cccc13)CC2,26
O=C(Nc1ccc(I)cc1C(=O)NCCN1CCOCC1)c1cccnc1,18
Cc1cc(C)n(CC(O)COc2ccc(C(=O)c3ccc(Cl)cc3)cc2)n1 (stereo unspecified),11
CNC[C@H]1OCCCC[C@@H](C)Oc2ccc(NS(=O)(=O)c3ccc(F)cc3)cc2C(=O)N([C@H](C)CO)C[C@@H]1C,-7
Nc1cc(N)nc(SCC(=O)Nc2ccc(Oc3ccccc3)cc2)n1,11
COc1ccc(CCNC(=O)c2c(-c3c(F)cccc3Cl)noc2C)cc1OC,38
C[C@H]1CN([C@@H](C)CO)C(=O)c2cccc(NS(C)(=O)=O)c2O[C@H]1CN(C)Cc1ccc(C(=O)Nc2ccccc2N)cc1,45
O=C(Nc1ccccc1C(=O)NCc1cccnc1)c1ccc(Cl)cc1Cl,27
O=C(CSc1nnnn1-c1ccccc1)Nc1ccc(-c2nc3ccccc3s2)cc1,41
Cc1noc(C)c1NC(=O)Nc1ccc2c(c1)C(=O)N([C@@H](C)CO)C[C@H](C)[C@H](CN(C)S(=O)(=O)c1cccs1)O2,-12
C[C@H]1CN([C@@H](C)CO)C(=O)c2cc(N(C)C)ccc2O[C@H]1CN(C)S(=O)(=O)c1ccc(Cl)cc1,9
CC(C)NC(=O)N(C)C[C@@H]1Oc2ccc(NC(=O)Nc3ccc4c(c3)OCO4)cc2C(=O)N([C@@H](C)CO)C[C@H]1C,-3
COC(=O)c1ccc(Oc2ccc(Cl)cc2Cl)o1,6
C[C@H]1CN([C@@H](C)CO)C(=O)c2cc(NC(=O)Nc3ccc(F)cc3)ccc2O[C@@H]1CN(C)Cc1ccc(Cl)c(Cl)c1,22
COc1ccc(S(=O)(=O)N(C)C[C@@H]2Oc3ccc(NS(=O)(=O)c4c(C)noc4C)cc3C(=O)N([C@@H](C)CO)C[C@H]2C)cc1,22
CC1=C2C[C@@]3(C)[C@@H](CCC[C@@H]3C)C[C@@]2(O)OC1=O,15
Cc1c(C)c2c(c(C)c1O)CCC(C)(C(=O)O)O2 (stereo unspecified),11
N#Cc1c(C(F)(F)F)cc(-c2cccs2)nc1SCC(=O)Nc1ccccc1C(F)(F)F,15
COc1c(S(=O)(=O)NCCN2CCOCC2)ccc(Cl)c1Cl,-12
O=C(CSc1ccccn1)Nc1ccc(Cl)cc1,-4
C[C@@H]1CN([C@H](C)CO)C(=O)Cc2cc(NC(=O)C3CC3)ccc2O[C@@H]1CN(C)Cc1ccc(C(=O)O)cc1,0
C[C@H](CO)N1C[C@H](C)[C@@H](CN(C)CC2CCCCC2)Oc2ccc(NC(=O)Nc3cccc4ccccc34)cc2C1=O,32
O=C(CSc1n[nH]c(-c2ccncc2)n1)N1c2ccccc2Sc2ccccc21,14
CC(O)CCCC1Cc2cccc(O)c2C(=O)O1 (stereo unspecified),-6
CCOc1ccc2nc(Nc3nc(C)cc(=O)[nH]3)nc(C)c2c1,18
CCn1c(SCC(=O)Nc2ccccc2OC)nnc1-c1ccco1,-17
C[C@H]1CN([C@@H](C)CO)C(=O)c2cccc(N(C)C)c2O[C@H]1CN(C)S(=O)(=O)c1cn(C)cn1,-10
C[C@H]1CN([C@@H](C)CO)C(=O)Cc2cc(NC(=O)c3ccncc3)ccc2O[C@@H]1CN(C)S(C)(=O)=O,10
C[C@H]1CN([C@@H](C)CO)C(=O)Cc2cc(NC(=O)Cc3cn(C)c4ccccc34)ccc2O[C@@H]1CN(C)S(=O)(=O)c1cn(C)cn1,-3
COc1ccc(S(=O)(=O)N(C)C[C@H]2OCCCC[C@@H](C)Oc3ccc(NS(=O)(=O)c4ccccc4)cc3C(=O)N([C@H](C)CO)C[C@@H]2C)cc1,19

# A different layout for some results above.
SMILES	NOMO-1 viab
COc1c(S(=O)(=O)NCCN2CCOCC2)ccc(Cl)c1Cl	-12
O=C(CSc1ccccn1)Nc1ccc(Cl)cc1	-4
C[C@@H]1CN([C@H](C)CO)C(=O)Cc2cc(NC(=O)C3CC3)ccc2O[C@@H]1CN(C)Cc1ccc(C(=O)O)cc1	0
C[C@H](CO)N1C[C@H](C)[C@@H](CN(C)CC2CCCCC2)Oc2ccc(NC(=O)Nc3cccc4ccccc34)cc2C1=O	32

# Carrying on:
SMILES,NOMO-1 viab
Cc1noc(C)c1NC(=O)N(C)C[C@H]1Oc2ccc(NC(=O)Nc3ccccc3)cc2CC(=O)N([C@@H](C)CO)C[C@@H]1C,17
C[C@@H]1CN([C@@H](C)CO)C(=O)Cc2cc(NS(C)(=O)=O)ccc2O[C@@H]1CN(C)S(C)(=O)=O,-1
CC(C)NC(=O)N(C)C[C@@H]1Oc2ccc(NC(=O)CCCCCC(=O)Nc3ccccc3N)cc2C(=O)N([C@H](C)CO)C[C@@H]1C,-18
C[C@@H]1CN([C@H](C)CO)C(=O)c2cccc(NS(=O)(=O)c3ccc(F)cc3)c2O[C@H]1CN(C)S(=O)(=O)c1ccccc1,-6

# Screening results deposited in PubChem by Broad Institute.

# Not all compounds are listed; count on the stated rates, not on these rows.
